GALK inh = inhibitors of human galactokinase; P51570; 270,000 compounds, 0.007% hits; Purified GALK, Kinase-Glo residual ATP luminescence; Potency, µM (highest dose often 57.5 µM), for the others: at the top dose activity change, negative = inhibition, hits mostly inhibitors; note: potency is the fitted concentration of half-maximal effect; % is set by controls: 0 for no effect and ±100 for the full control effect
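GALK at 5 nM final was combined with compound, 35 uM ATP and 100 uM galactose in HEPES pH8.0 with MgCl2 and DTT. The reaction ran one hour at room temperature before luminescent ATP detection.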
Menin-MLL TR inh = displaces Texas Red mutant MLL peptide from human menin | 270,000 compounds, 0.23% hits | Potency, µM (top dose mostly 61.6 µM), inactives show at the top dose FP activity change, negative = inhibition, usual class: inhibitors | Menin + Texas Red MLL mutant peptide, fluorescence polarization | O00255; active = well fitted inhibition curve with a large enough effect in the polarisation, with a control signal flat, not every such curve was filed as active; inconclusive = small, poorly fitted or top-dose-only effect, or effect the other way, or a change in a side signal; inactive = no such curve, though single readings can be large or run the other way; the % refers to the polarisation; note: potency is the fitted concentration of half-maximal effect; % of control where 0% means no effect; many of its hits are not listed in these tables
Target sequence (O00255 whole entry, looked up): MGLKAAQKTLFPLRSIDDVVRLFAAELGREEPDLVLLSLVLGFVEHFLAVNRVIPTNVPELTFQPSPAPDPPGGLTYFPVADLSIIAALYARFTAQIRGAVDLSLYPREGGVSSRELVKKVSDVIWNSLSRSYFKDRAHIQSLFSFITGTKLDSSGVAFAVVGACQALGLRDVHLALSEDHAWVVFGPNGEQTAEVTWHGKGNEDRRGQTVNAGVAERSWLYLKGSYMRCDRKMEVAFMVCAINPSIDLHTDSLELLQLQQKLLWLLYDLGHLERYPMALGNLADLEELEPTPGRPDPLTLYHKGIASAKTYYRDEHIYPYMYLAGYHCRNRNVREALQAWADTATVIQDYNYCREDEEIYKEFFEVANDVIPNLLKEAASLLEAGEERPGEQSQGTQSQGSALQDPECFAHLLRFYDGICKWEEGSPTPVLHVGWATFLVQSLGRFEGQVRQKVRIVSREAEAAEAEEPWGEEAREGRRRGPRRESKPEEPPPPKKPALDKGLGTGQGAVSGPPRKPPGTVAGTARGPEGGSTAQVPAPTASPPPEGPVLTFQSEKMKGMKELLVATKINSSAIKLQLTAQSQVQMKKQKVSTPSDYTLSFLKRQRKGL
TRPV1 agonist = activates the human vanilloid receptor TRPV1. AID 540275. TRPV1-expressing cells, Fluo-8 calcium influx, agonist mode. Q8NER1. 320,000 compounds, 0.19% hits. activation, % at 8.33 µM; in the data active = activation above about 80%; inconclusive = between about 30% and that limit; note: 0% is about no effect
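Fluo-8 calcium influx in TRPV1-expressing cells, kinetic read (ex 480/em 520 nm). Compound added and read 3 min for agonist activity, followed by capsaicin at EC20 final and 2 min further read for enhancement.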
Coupling enz = coupling enzyme interference in Giardia aldolase counter-screen; coupling enzyme system counterscreen, AmpLite Red fluorescence; activity change, negative = inhibition, % at 58.2 µM, hits read low; 290,000 compounds, 0.67% hits; AID 2472; in the data active = activity change below about -30%; note: % is set by controls: 0 for no effect and ±100 for the full control effect
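Counterscreen of the coupled detection system alone, without aldolase: glyceraldehyde-3-phosphate coupling enzymes plus AmpLite Red readout. Compounds at 57.5 uM final, 10 min RT preincubation, 20 min RT reaction, fluorescence 525/598 nm.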
Giardia killer = kills Giardia lamblia. Giardia lamblia trophozoite viability. activity change, % at 7.66 µM, hits read low. 340,000 compounds, 0.15% hits; in the data active = activity change below about -80%; inconclusive = between about -30% and that limit;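 note: parasites exposed to compound for two days anaerobically before the ATP read; % is set by controls: 0 for no effect and ±100 for the full control effect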
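Media and compound were dispensed first, then trophozoites at 100 cells/well; plates sat 48 hrs at 37 deg C without oxygen before ATP luminescence reagent was added and read after 15-30 min at room temperature.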
MLL CXXC-DNA inh = blocks binding of human MLL CXXC domain to DNA; Q03164; Potency, µM (series often up to 115 µM), without a hit: at the top dose activity change, negative = inhibition, usual class: inhibitors; 290,000 compounds, 0.037% hits; MLL-CXXC / FITC-HOXA9 DNA fluorescence polarization; AID 2662; active = well fitted inhibition curve with a large enough effect in the polarisation, with a control signal flat, not every such curve was filed as active; inconclusive = small, poorly fitted or top-dose-only effect, or effect the other way, or a change in a side signal; inactive = no such curve, though single readings can be large or run the other way; the % refers to the polarisation; note: potency is the fitted concentration of half-maximal effect
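Purified MLL-CXXC (added from a 7 uM solution) was preincubated 5 min at ambient with pinned compounds in 50 mM Tris-HCl pH 7.5, 50 mM NaCl, 1 mM DTT, 0.05% BSA. Fluorescein-labeled HOX-A9 DNA (50 nM solution) followed, 30 min, then polarization read.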
PKM2 activator = increases activity of human pyruvate kinase M2. purified PKM2, Kinase-Glo ATP luminescence, activation; response scale: 0% is enzyme alone, no compound. Potency, µM (top dose mostly 57.5 µM), inactives show at the top dose activation, usual class: activators. 260,000 compounds, 0.34% hits. AID 1631; note: potency is the fitted concentration of half-maximal effect; % is set by controls: 0 for no effect and ±100 for the full control effect; nearly all actives have a fitted effect of over 55% in size
Target sequence (P14618 whole entry, looked up): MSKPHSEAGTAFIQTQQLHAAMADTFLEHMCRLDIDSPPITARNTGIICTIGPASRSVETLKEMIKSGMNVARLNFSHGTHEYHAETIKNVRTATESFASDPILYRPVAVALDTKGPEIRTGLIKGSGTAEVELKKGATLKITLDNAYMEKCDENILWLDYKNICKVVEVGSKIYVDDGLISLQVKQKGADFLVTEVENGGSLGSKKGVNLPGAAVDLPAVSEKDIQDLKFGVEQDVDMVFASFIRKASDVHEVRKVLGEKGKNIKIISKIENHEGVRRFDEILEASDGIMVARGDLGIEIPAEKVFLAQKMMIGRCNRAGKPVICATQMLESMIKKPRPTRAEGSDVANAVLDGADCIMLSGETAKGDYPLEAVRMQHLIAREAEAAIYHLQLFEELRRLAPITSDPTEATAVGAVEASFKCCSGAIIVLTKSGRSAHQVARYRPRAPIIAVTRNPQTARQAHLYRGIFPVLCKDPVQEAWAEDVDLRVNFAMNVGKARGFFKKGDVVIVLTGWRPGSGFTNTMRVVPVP
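Purified hPK-M2 (>95%) run at intermediate activity with 0.1 mM ADP and 0.5 mM PEP in 50 mM imidazole pH 7.2, KCl, MgCl2; 1 h room temperature. ATP formed read by Kinase-Glo luminescence; normalized to uninhibited and no-enzyme controls.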
B2AR arrestin = beta2AR (human) beta-arrestin recruitment activity. P07550. beta-arrestin recruitment to beta2AR, cell-based reporter. Potency, µM (series often up to 46.1 µM), for the others: at the top dose activation, most hits filed as activators. 330,000 compounds, 0.02% hits. AID 492947;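 note: potency is the fitted concentration of half-maximal effect; 0% = DMSO controls and full agonism = EC100 isoproterenol or metaproterenol; nearly all actives have a fitted effect of over 65% in size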
USP2a inh = USP2a (human) protease inhibition; 330,000 compounds, 0.01% hits; Potency, µM (series often up to 38.3 µM), for the others: top-dose activity change, negative = inhibition, usual class: inhibitors; USP2 core, Ub-CHOP2 coupled fluorogenic reporter, 485/531;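 note: potency is the fitted concentration of half-maximal effect; plate controls were DMSO wells for no effect and full inhibition by NEM control for full effect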
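Cell-free coupled assay: 10nM USP2 core preincubated 30min RT with compound in Tris-HCl pH 8.0/CaCl2/CHAPS buffer, then 25nM Ub-CHOP2 and 25nM reporter substrate; fluorescence (Ex 485/Em 531) read after 60min RT, normalized to NEM inhibition, concentration-response curves fitted.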
* marks the source's active call; other numbers are inactive results; ? = inconclusive; · = not tested or not shown; & = joins results of further samples; [ ] = dose if it differs, or a comment. Unless noted, calls come from the whole dose curve; as a rule, active = well fitted curve in the direction sought with a large enough effect; inconclusive = small, poorly fitted or top-dose-only effect, or another doubt; inactive = no such curve, though single readings can be large; an effect the other way counts as inactive or inconclusive.

Order of results: GALK inh	Menin-MLL TR inh	TRPV1 agonist	Coupling enz	Giardia killer	MLL CXXC-DNA inh	PKM2 activator	B2AR arrestin	USP2a inh
COc1ccc(Cl)cc1NC(=O)c1cc(S(=O)(=O)N2CCCC2)cn1C
  ·	-6%	-11	-2	3	·	0%	-1.4%	-1%
Cc1ccc2c(c1)c(Sc1ccccc1)c(CC(=O)O)n2C
  0%	?	5	7	-3	·	0%	-0.3%	1%
Cc1ccc(C)c(S(=O)(=O)NC(C)CCc2ccccc2)c1 (stereo not given)
  5%	2%	13	-8	-14	-4%	·	-0.4%	2%
OCc1nc2ccccc2n1Cc1ccc(Cl)cc1
  6%	-1%	23	-3	-19	-7%	-7%[11.5 µM]	-1.1%	4%
O=C(c1ccccc1)C(O)(CN1CCCCC1)c1ccccc1 (stereo not given)
  ·	·	·	·	-19	·	·	·	·
O=C(NC(CO)C(O)c1ccc([N+](=O)[O-])cc1)C(Cl)Cl (stereo not given)
  1%	-1%&9%	0	0&-2	-8	2%&-10%	0%	0.1%	2%
O=C(CCSCCc1ccncc1)NCCCN1CCOCC1
  0%	3%	-1	1	7	6%	-4%	0.0%	0%
Nc1nc(=S)c2[nH]cnc2[nH]1
  ·	-4%	3	-1	-5	·	·	0.0%	0%
CCNC(=O)N1CCN(CCCC(c2ccc(F)cc2)c2ccc(F)cc2)CC1
  ·	?	?	·	-10	-8%	·	0.1%	2%
O=C(O)COc1ccc(/C=N/Nc2nc(Nc3ccccc3)nc(N3CCCCC3)n2)cc1
  -1%	?	1	3	10	·	6%	0.0%	9%

Next section.
Order of results: GALK inh	Menin-MLL TR inh	TRPV1 agonist	Coupling enz	Giardia killer	MLL CXXC-DNA inh	PKM2 activator	B2AR arrestin	USP2a inh
CCCCn1c(N)c(N(C)C(=O)c2cc3c(F)cccc3s2)c(=O)[nH]c1=O
  ·	·	·	·	0	·	·	0.1%	7%
O=C(Nc1ccncc1)c1ccc(-c2ccccc2)cc1
  5%	3%	?	1	-29	15%	-2%	0.2%	-1%
COC(=O)C1=C(C)NC(C)=C(C(=O)OCC(C)C)C1c1ccccc1[N+](=O)[O-] (stereo not given)
  ·	-12%	·	·	18	4%	·	·	·
Cc1cc(=O)[nH]c(/N=C(\N)Nc2ccc(Oc3ccccc3)cc2)n1
  0%	·	7	3	4	-15%	4%	-1.0%	1%
Cc1ccc(-c2csc3ncn(CC(=O)OC(C)C)c(=O)c23)cc1
  3%	-1%	15	-1	14	-3%	1%	0.0%	3%
COCCNC(=O)[C@H]1N2C(=O)c3ccccc3C2SC1(C)C (stereo not given in full)
  -1%	-13%	-1	-2	-20	9%	·	0.3%	0%
Cc1ccc(C)c(N2N=C(C(=O)NCCN3C(=O)S/C(=C\c4cccnc4)C3=O)CCC2=O)c1
  ·	·	-2	·	-1	·	·	-0.4%	1%
O=C1N(c2ccc3c(c2)OCCO3)C(c2ccccc2)C1(F)F (stereo not given)
  5%	15%	17	2	8	4%	-3%	-1.1%	-2%
CC(C)(C)C1CCC2(CC1)C(C#N)=C(SCC(=O)Nc1ccccc1)NC(=O)C2C#N (stereo not given)
  -4%	?	?	1	-10	·	-4%	0.2%	-21%
COc1cc(OC)c(OC)cc1CN(C)C(c1ccccc1)c1nnnn1-c1ccccc1C (stereo not given)
  3%	13%	20	8	9	-1%	0%	-0.4%	-2%

(next part)
Order of results: GALK inh	Menin-MLL TR inh	TRPV1 agonist	Coupling enz	Giardia killer	MLL CXXC-DNA inh	PKM2 activator	B2AR arrestin	USP2a inh
CCN(CC)S(=O)(=O)c1cc(NS(=O)(=O)c2cccc(Cl)c2)ccc1C
  0%	-9%	2	2	?	-4%	-5%	-0.9%	-1%
NCCOc1ccc(C2CCCCC2)cc1
  0%	-13%	7	0	11	10%	-12%	-0.4%	-1%
CCOc1ccc(Cl)cc1/C=N/O
  -2%	1%	0	-1	-5	-3%	-2%	-0.6%	0%
COc1ccc(C(=O)OCC(=O)NC(C)(C)C)cc1[N+](=O)[O-]
  1%	8%	-3	-1	-4	-2%	-1%	-0.4%	2%
CCOc1cccc2sc(N(CCCN(C)C)C(=O)c3ccc(S(=O)(=O)N(CC)Cc4ccccc4)cc3)nc12
  -6%	?	5	0	2	·	1%	-0.1%	0%
Cc1cccc(N/N=C(\C(N)=O)C2=NC(C)(C)Cc3ccccc32)c1
  0%	-1%	16	-1	-4	20%	-1%	-0.6%	-9%
Cc1ccc(Cn2c(SCC(=O)NCC3CCCO3)nc3c(sc4ccccc43)c2=O)cc1 (stereo not given)
  2%	-11%	-4	2	6	3%	10%	2.7%	1%
O=C1N=C(O)CN1/N=C/c1ccc(-c2ccc([N+](=O)[O-])cc2)o1
  ·	-4%	·	·	-20	-6%	·	·	·
Cc1ccc(-c2cc(C(=O)N3N=C(C(F)F)CC3(O)C(F)F)c3ccccc3n2)cc1C (stereo not given)
  0%	-12%	29	-6	12	-16%	-1%	0.0%	-9%
Cc1cc(C(=O)COC(=O)c2ccc(O)cc2)c(C)n1Cc1ccco1
  1%	·	4	1	11	2%	19%	-0.2%	1%

Three entries from above, arranged by the value under MLL CXXC-DNA inh, lowest first:
compound | MLL CXXC-DNA inh
OCc1nc2ccccc2n1Cc1ccc(Cl)cc1 | -7%
CCN(CC)S(=O)(=O)c1cc(NS(=O)(=O)c2cccc(Cl)c2)ccc1C | -4%
O=C(CCSCCc1ccncc1)NCCCN1CCOCC1 | 6%

Next part
Order of results: GALK inh	Menin-MLL TR inh	TRPV1 agonist	Coupling enz	Giardia killer	MLL CXXC-DNA inh	PKM2 activator	B2AR arrestin	USP2a inh
CC(=O)OCC(=O)[C@@]1(O)CC[C@H]2[C@@H]3CCC4=CC(=O)CC[C@]4(C)[C@H]3C(=O)C[C@@]21C
  4%	0%	-4	1	-17	-3%&-4%	-4%	0.1%	-2%
COc1ccc(NC(=O)CN(C)C(=O)c2ccc(S(=O)(=O)Nc3ccccc3F)cc2)cc1
  ·	·	-2	·	-7	·	·	-0.1%	1%
C=CCOc1ccc(C2NC(=S)NC(C)=C2C(=O)c2ccccc2)cc1OC (stereo not given)
  2%	-2%	2	1	12	10%	-3%	4.4%	2%
CC1CC2C3CCC4=CC(=O)C=C[C@@]4(C)[C@]3(F)C(O)C[C@]2(C)[C@]1(O)C(=O)COP(=O)(O)O (stereo not given in full)
  ·	2%	·	9	·	·	·	·	·
CCOc1cc(C2C(C(=O)OC(C)C)=C(C)N=C3SCCC(=O)N32)ccc1OC(C)=O (stereo not given)
  1%	6%	1	1	12	-2%	1%	-0.9%	2%
Cc1ccc(N(Cc2ccccc2)C(=O)c2cc(S(=O)(=O)N3CCOCC3)ccc2Cl)cc1
  ·	·	?	·	-1	·	·	-0.3%	0%
CN1CCCC(n2nc(Cc3ccc(Cl)cc3)c3ccccc3c2=O)CC1 (stereo not given)
  ·	-12%	·	-17	36[activator]	-2%	·	·	·
CS(=O)(=O)Nc1nc2n(n1)C(c1ccccc1)CC(c1ccccc1)N2 (stereo not given)
  ·	·	0	4	-9	-8%	-3%	-0.5%	-4%
NC[C@H](O)c1ccc(O)c(O)c1
  ·	?	-2	-40*	-9	0%&-10%	·	·	1%
COC(=O)c1ccccc1NC(=S)NC(=O)COc1ccc(C)cc1
  ·	·	·	·	4	·	·	·	·

2 compounds drawn at random from those above:
Order of results: GALK inh	Menin-MLL TR inh	TRPV1 agonist	Coupling enz	Giardia killer	MLL CXXC-DNA inh	PKM2 activator	B2AR arrestin	USP2a inh
CC(=O)OCC(=O)[C@@]1(O)CC[C@H]2[C@@H]3CCC4=CC(=O)CC[C@]4(C)[C@H]3C(=O)C[C@@]21C
  4%	0%	-4	1	-17	-3%&-4%	-4%	0.1%	-2%
CCOc1cc(C2C(C(=O)OC(C)C)=C(C)N=C3SCCC(=O)N32)ccc1OC(C)=O (stereo not given)
  1%	6%	1	1	12	-2%	1%	-0.9%	2%

More records
Order of results: GALK inh	Menin-MLL TR inh	TRPV1 agonist	Coupling enz	Giardia killer	MLL CXXC-DNA inh	PKM2 activator	B2AR arrestin	USP2a inh
CCN(C(=O)CSc1nnc(Cc2cccc3ccccc23)n1N)C1CCS(=O)(=O)C1 (stereo not given)
  5%	-14%	5	1	11	-9%	3%	-0.3%	-2%
O=C(O)C(Cc1cc(Cl)ccc1Cl)Sc1nc2ccccc2[nH]1 (stereo not given)
  6%	·	-1	9	4	-3%	0%	-0.1%	0%
COc1ccc(/C(C)=N/NC(=O)c2ccncc2)cc1
  2%	-20%	-1	0	3	11%	2%	0.3%	-2%
CCSc1ncccc1-c1nc2ccccc2[nH]1
  1%	0%	4	-1	8	-3%	-1%	0.1%	0%
CCN(CC)S(=O)(=O)c1cccc(C(=O)Nc2ccc(Cl)cn2)c1
  -2%	18%	15	1	-2	-8%	-3%	-0.3%	0%
CC(/C=N/NC(=O)c1n[nH]c2c1CCC2)=C\c1ccccc1
  -3%	-3%	3	5	-5	7%	-4%	-1.8%	0%
CC(=O)NCCOc1nc(N2CCCCC2)nc(N2CCCCC2)n1
  7%	-1%	?	3	-14	-1%	2%	0.1%	0%
COc1ccc(OC)c(S(=O)(=O)NC(C)CCc2ccccc2)c1 (stereo not given)
  4%	-11%	5	1	8	4%	10%	0.0%	0%
CCN(CC(=O)Nc1ccc2c(c1)OCO2)S(=O)(=O)c1ccccc1
  0%	·	7	2	1	5%	2%	-0.5%	-4%
Cc1[nH]cnc1CN1CCc2c(c3ccccc3n2C)C1=O
  ·	8%	·	·	12	12%	·	·	·
COc1ccc(/C=C2\N=C(SC)SC2=O)cc1OC
  3%	?	1	3	-6	·	5%	-0.4%	3%
Cc1cccc(N2CC(C(=O)NCc3ccco3)CC2=O)c1C (stereo not given)
  ·	·	-3	·	2	·	·	4.4%	1%

Not all compounds are listed; count on the stated rates, not on these rows.
